Calb FLC = C. albicans growth modulation with fluconazole; growth inhibition, % (no concentration beside the values); actives 0.57% (n = 300,000); C. albicans CaCi-2 (fluconazole-resistant clinical isolate) + fluconazole, Alamar Blue growth, 48 h;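 active = most replicates above 75%; inconclusive = exactly half above 75%; inactive = most below 75%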;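 also: all wells also contain fluconazole at 8 µg/ml as a sub-toxic cotreatment; 0% = median of DMSO wells and 100% = median of geldanamycin control wells; wells of about 8 µL received 7.5 nL stock; the first replicate is given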
Beta cell apopt = beta cell apoptosis inhibition | INS-1E cytokine-induced death, ATP luminescence, 48 h; percent of positive-control rescue, neutral wells zero | actives 0.8% (n = 300,000) | protection from apoptosis, % (test concentration not listed);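 active = all replicates at 75% or more, or half of them and the mean; inconclusive = half reach 75% but not the mean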;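 also: 0% = cytokine-treated negative control wells and 100% = positive control rescue; higher means more ATP so stronger rescue from cytokine killing; wells of about 40 µL received 100 nL stock; the first replicate is given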
Vif TR-FRET = inhibitors of Vif binding to APOBEC3G peptide, primary screen, biochemical, TR-FRET, GST-Vif 1-94, biotin-A3G peptide, dose response retest (AID 1117319); actives 0.57% (n = 260,000); TR-FRET GST-Vif / biotin-A3G peptide binding; higher % means a stronger effect; test concentration not given here; strong numbers were not always called active; one-dose inhibition, %; IC50 in µM for titrated hits;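 active = above the screen mean plus three standard deviations and confirmed in dose response; inconclusive = results disagree or hit not tested in dose response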;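 also: Vif residues 1-94 fused to GST binding biotinylated APOBEC3G peptide 110-148; 0% = full assay without inhibitor and 100% = GST in place of GST-Vif; retest series ran down from 100 µM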
MLL AF4-AF9 inh = MLL-AF4/AF9 protein interaction inhibition; P42568; AlphaScreen, biotin-AF4 peptide binding to FLAG-AF9; inhibition, % at 10 µM; actives 0.47% (n = 350,000); AID 651704;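 active = every replicate reaching a set inhibition limit, whatever the replicate mean, cut at about 25% in these data; inconclusive = mean inhibition reaches that limit but some replicates miss it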;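 also: 0% = plate neutral control median and 100% = total signal loss; the record names both 10 and 1 µM as test concentration; the first replicate is given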
Target sequence (P42568 whole entry, looked up): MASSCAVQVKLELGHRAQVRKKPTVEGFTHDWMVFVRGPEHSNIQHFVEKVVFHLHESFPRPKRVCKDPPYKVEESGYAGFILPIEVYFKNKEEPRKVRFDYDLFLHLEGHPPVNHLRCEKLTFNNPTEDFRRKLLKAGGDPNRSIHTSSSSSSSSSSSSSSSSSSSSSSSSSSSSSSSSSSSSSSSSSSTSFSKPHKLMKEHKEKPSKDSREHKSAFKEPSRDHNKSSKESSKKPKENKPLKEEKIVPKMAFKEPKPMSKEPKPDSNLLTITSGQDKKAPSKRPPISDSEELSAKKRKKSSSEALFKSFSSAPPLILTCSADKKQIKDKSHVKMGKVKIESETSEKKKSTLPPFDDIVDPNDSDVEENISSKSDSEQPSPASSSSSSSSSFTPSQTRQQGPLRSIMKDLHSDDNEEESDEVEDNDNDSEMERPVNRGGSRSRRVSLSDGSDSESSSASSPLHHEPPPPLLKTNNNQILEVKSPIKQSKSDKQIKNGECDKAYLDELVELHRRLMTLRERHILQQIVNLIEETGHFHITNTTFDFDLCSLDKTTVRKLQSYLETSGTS
A1 inh = inhibitors of the anti-apoptotic protein A1, read as caspase activation; caspase activation, % (test concentration not listed); MEF A1-2A-BIM cells, Caspase-Glo 3/7 luminescence, 3 h; percent of clofoctol response, vehicle zero; actives 0.066% (n = 330,000);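 active = over half of replicate activation scores above 10%, or exactly half above 10 with the replicate mean above 10; inconclusive = replicate mean below 10 yet half the replicates above 10; inactive = over half of replicates below 10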;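 also: wells of about 30 µL received 50 nL stock; many hits fall short of the cut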
LANA-H2A inh = blocks KSHV LANA binding to histone H2A/H2B. Q9QR71. cell-free LANA-H2A/H2B peptide, fluorescence polarization. inhibition, % (test concentration not listed). actives 0.6% (n = 320,000). AID 2629; in the data active = inhibition mostly above about 10%, no sharp cut-off; inactive = mostly below about 6.7%;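 also: stock transfer was 7.5 nL into about 10 µL; 0% = median of vehicle wells and 100% = median of positive control wells; one replicate is shown; the record names a cut of 25% in any replicate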
T cruzi repl = blocks replication of Trypanosoma cruzi; T. cruzi beta-gal in NIH3T3, luminescence, 90 h; inhibition, % (no concentration beside the values); actives 1.4% (n = 300,000); AID 1885;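 active = mean inhibition across valid replicates above about 55%, limit read from the data; inconclusive = mean below that limit but half or more replicates reach it; inactive = mean below it, under half of replicates reach it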;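 also: signal also drops with host cell toxicity which is not excluded here; 0% = plate median of DMSO wells and 100% = zero luminescence signal; higher percent means less beta-gal luminescence so fewer parasites; stock transfer was 50 nL into about 50 µL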
RanGTP-Impb inh = inhibitors of RanGTP-importin-beta interaction, primary screen, biochemical, FRET, CFP-Ran, YFP-importin-beta, homogeneous. cell-free CFP-Ran/YFP-importin-beta FRET ratio. inhibition, % (test concentration not listed). actives 1.1% (n = 300,000);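 active = most replicates above 15%; inconclusive = exactly half above 15%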;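 also: 0% = DMSO wells and 100% = Ran loaded with GDP instead of GTP; wells of about 40 µL received 100 nL stock; the first replicate is given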
Starred values were filed as active, the others as inactive; ? = inconclusive; · = not tested or not shown; & = joins results of further samples. Rows are unselected; overall some 4.3% were active at least once.

SMILES,Calb FLC,Beta cell apopt,Vif TR-FRET,MLL AF4-AF9 inh,A1 inh,LANA-H2A inh,T cruzi repl,RanGTP-Impb inh
Cc1ccc2sc(N(CCCN(C)C)C(=O)CN3C(=O)c4ccccc4C3=O)nc2c1C,-3,2,·,16,-0.4,0.9,58*,2.4
CCOc1ccc(NC(=S)NC(=O)/C=C/c2ccc(Br)cc2)c([N+](=O)[O-])c1,7,14,9%,9.6,0.0,6.0,5,2.1
COc1cc(OC)cc(-c2cc3ccc(OC)cc3cn2)c1,·,36,·,3.0,-13,-4.0,·,·
CC(C(=O)Nc1ccccc1)N(c1cccc(Cl)c1)S(C)(=O)=O (stereo not given),10,-5,-5%,-0.1,-0.3,2.2,-3,-4.5
O=C(CSc1ncccn1)Nc1ccc2c(c1)OCO2,·,4,-3%,-3.2,-0.6,1.9,·,·
O=C1CN(C(=O)COC(=O)Cc2ccccc2F)c2ccccc2N1,·,-4,·,-0.1,-0.5,-5.1,·,·
CC1(C)CC(=O)c2cnc(NC(=O)C3CCCC3)nc2C1,-16,4,1%,0.0,0.6,-8.8,3,-2.8
CCOc1cc2c(cc1OCC)C(c1ccc(C(=O)O)cc1)NCC2 (stereo not given),3,-8,1%,-1.2,0.6,1.2,-3,5.2
Cc1csc(CCc2nc(C)cs2)n1,-10,-5,-3%,-5.3,-1.3,8.4*,-12,-0.1
O=C(Nc1ccc(NC(=S)NC(=O)c2cccs2)cc1)c1ccccc1,0,1,·,·,-0.6,2.6,3,0.3
O=C1NCC(O)=C1C=Nc1ccccc1O,-22,-1,0%,1.6,0.5,-4.1,-18,-1.5
COc1ccc(C2=NS(=O)(=O)N(C)C(C(=O)NCc3ccccn3)=C2)cc1OC,1,-1,·,-6.9,-1.0,1.0,-1,-0.7
CC1C(c2ccccc2)N(C)C(c2ccccc2)CC1(O)c1ccccc1 (stereo not given),63,3,-2%,·,0.3,-4.4,27,0.2
O=C(Nc1ccc2c(c1)OCCO2)c1ccc(Br)o1,-2,11,10%,·,0.1,-2.1,-8,-0.4
COc1cc(SC)ccc1C(=O)Nc1nc(C)cc(C)n1,3,4,1%,-4.4,0.4,-10,-2,2.0
O=C(CN1C(=O)NC2(CCOc3ccccc32)C1=O)c1ccc(Br)cc1 (stereo not given),4,-4,·,-6.0,0.0,-2.9,2,4.8
O=C(O)Cn1cc(/C=N/NC(=O)c2cc3cc(Br)ccc3o2)c2ccccc21,16,0,1%,-13,0.1,2.9,-4,-0.2
CCCCN(c1ccccc1)c1ncnc2nc[nH]c12,-5,-5,-7%,·,-0.2,0.4,2,6.3
CC(=O)Nc1ccc(S(=O)(=O)N2CCc3ccccc3C2CC(=O)O)cc1 (stereo not given),-5,·,·,2.5,2.4,-5.4,-7,-3.4
O=C(CNC(=O)c1ccc(Br)cc1)c1ccc(Br)cc1,8,0,·,-3.6,-0.5,4.3,4,-0.9
Cc1cccc(OC(C)C(=O)Nc2cc(Cl)ccc2-n2cncn2)c1 (stereo not given),·,-5,4%,1.0,0.1,·,·,·
CCCCOC(=O)C[N+](C)(C)CCOC1CC2CCC1(C)C2(C)C (stereo not given),?,9,·,-0.5,-0.4,1.7,50,-1.9
CCN(CC)S(=O)(=O)c1cccc(C(=O)N/N=C/c2cccc(O)c2O)c1,-2,42,?,-1.2,-1.9,-10,3,-4.3
CCN(CC)C(=O)C1CCCN(C(=O)Nc2ccc(NC(=O)N3CCCC(C(=O)N(CC)CC)C3)cc2)C1 (stereo not given),2,-10,4%,·,0.9,-3.4,-19,0.9
COc1cc(NC(=O)CSc2nnc(-c3ccncc3)o2)cc(OC)c1OC,-21,-5,1%,0.8,0.2,-1.4,-13,-1.8
CCOc1ccc2nc(NC(=O)CSc3nc4cccnc4n3C)sc2c1,16,4,27%,·,0.4,2.1,-8,2.2
NNS(=O)(=O)c1ccc2c(c1)Cc1cc(S(=O)(=O)NN)ccc1-2,1,-6,-3%,1.6,0.6,-1.5,-6,0.5
Cc1cc(C(=O)NNC(=O)c2ccc(C)s2)c(C)o1,·,-2,-8%,11,0.9,-5.1,0,-3.4
O=C(Cc1csc(-c2ccccc2)n1)NCc1cccs1,-11,-1,-6%,-2.3,1.2,-1.8,2,-1.1
CSc1ccc(Cl)c(C(=O)Nc2ccc(Cl)cn2)c1,-5,4,23%,-2.1,0.0,-5.5,-3,-0.5
CCCC(=O)Nc1c2c(nn1-c1ccccc1)CSC2,-2,0,3%,0.6,1.3,-3.4,-1,-0.6
CCN(CC)C(=O)COc1ccc(S(=O)(=O)N2CCCC2)cc1,5,-1,-1%,-10,-0.2,-1.3,-11,0.5
O=C(c1ccco1)N1CCN(C(=O)c2ccc(-c3ccccc3Cl)o2)CC1,·,0,-2%,2.0,-0.6,1.3,·,·
Cc1c(Br)c(C(F)(F)F)nn1CC(=O)NCCCn1ccnc1,-2,-1,13%,0.0,-0.1,-4.3,5,7.0
Cc1ccc(C(C[N+](=O)[O-])c2c(N)n(C)c(=O)n(C)c2=O)cc1 (stereo not given),-8,-3,0%,-0.4,0.0,-3.2,12,0.8
CC(=O)Nc1ccc(NC(=O)c2ccco2)cc1,24,3,1%,·,-1.1,-1.0,-5,0.9
CN(CC(=O)NCc1ccco1)S(=O)(=O)c1ccc2c(c1)c(=O)n(C)c(=O)n2C,-2,-7,15%,0.8,0.2,0.6,-3,-3.3
COc1ccc(N2CC(C)Cn3c2nc2c3c(=O)n(Cc3ccc(F)cc3)c(=O)n2C)c(OC)c1 (stereo not given),19,12,-7%,·,0.2,-1.3,21,-2.1
O=C1CCC/C(=N\NC(=O)c2ccc(CSc3cccc4cccnc34)cc2)C1,-12,0,6%,0.1,-1.4,-5.6,-1,6.2
COc1ccccc1/C=C(/C(=O)OCC(=O)Nc1cc(C)ccc1C)c1ccccc1,16,-4,·,0.3,-0.3,-2.3,13,-1.0
C=CCc1ccccc1OCCOc1ccc([N+](=O)[O-])cc1/C=N/NC(N)=O,-5,-1,-10%,0.7,-0.4,-0.3,3,3.1
COc1cccc(CNCCSc2nnnn2C)c1,-4,-6,8%,·,-1.7,4.7,3,·
Cc1ccc(C(=O)NCCc2ccccc2)cc1,3,2,-2%,·,-5.7,0.3,-9,-2.6
COc1ccc(S(=O)(=O)NCC(=O)N(CC(=O)NCC2CCCO2)c2cc(C)ccc2C)cc1 (stereo not given),15,-9,6%&-3%,·,0.1,0.7,4,-3.3
O=C(O)c1ccc(Cl)c(S(=O)(=O)N(Cc2ccccc2)c2ccccc2Cl)c1,27,5,1%,1.7,0.4,0.0,-4,-0.7
Oc1ccccc1C=NCCCCCCN=Cc1ccccc1O,-17,1,1%,39*,-0.8,3.1,-3,-1.0
Cc1cccnc1NC(=O)c1ccc(S(=O)(=O)N2CCC(C)CC2)cc1,-8,3,0%,0.3,-0.2,-2.7,-1,2.8
S=c1[nH]nc(-c2ccccn2)n1/N=C/c1cccc(Cl)c1,10,2,-5%,-4.7,-0.2,11,-4,-0.6
COc1ccccc1N1CCN(CC(=O)Nc2sccc2C#N)CC1,-9,-5,-7%,1.5,-0.3,1.4,6,0.3
Cc1cc(C(=O)CCC(=O)Nc2ccc(S(N)(=O)=O)cc2)c(C)s1,·,-1,-12%,-0.3,0.6,-0.3,·,·
O=C(c1ccc(Br)o1)N1CCc2ccccc21,8,9,·,·,-13,-1.8,-28,3.4
CCCOc1ccc(CCC(=O)N/N=C/c2ccncc2)cc1,-3,-4,2%,4.2,-0.5,1.4,-15,2.9
CC(C)N(C(C)C)S(=O)(=O)c1ccc(Cl)nc1,-2,1,3%,-0.3,-0.5,-0.2,-12,-2.0
CSc1ccc(C(=O)C2CCCN(C(=O)CCCn3cncn3)C2)cc1 (stereo not given),22,·,-1%,1.1,-0.2,4.9,4,-0.2
O=C(CN1CCN(Cc2ccccc2Cl)CC1)N/N=C/C=C\c1ccccc1[N+](=O)[O-],6,-11,3%,·,-0.7,2.3,11,-1.3
NCc1ccccc1COc1ccccc1,-1,-1,-6%,1.1,-0.4,-6.9,-1,-2.2

Further structures.
SMILES,Calb FLC,Beta cell apopt,Vif TR-FRET,MLL AF4-AF9 inh,A1 inh,LANA-H2A inh,T cruzi repl,RanGTP-Impb inh
O=C(c1ccc2c(=O)n(-c3ccccc3)c(=O)[nH]c2c1)N1CCCCC1,32,1,9%,1.7,0.2,-7.8,-12,?
O=C(Nc1nc(=O)n(C(=O)C2CC2)s1)c1ccccc1,-11,-14,15%,-35,-0.1,-3.9,5,1.6
Cc1ccc(-c2nn3c(=O)c(C)nnc3s2)cc1,28,0,-6%,·,-0.7,-0.7,-8,-1.7
Cc1cccc(OCCNc2cc(N3CCOCC3)ccc2[N+](=O)[O-])c1,28,3,26%,6.4,0.5,-1.3,24,-1.8
Cn1c(SCC(=O)Nc2cccc(F)c2)nnc1-c1cccnc1,4,-2,-7%,-5.5,-1.2,2.9,-1,-2.1
Cc1ccc(S(=O)(=O)NCC(=O)N(CC(=O)NCC2CCCO2)c2ccc(Cl)cc2)cc1 (stereo not given),-7,-4,-6%,1.4,-0.1,0.8,-6,-0.8
COCCNC(=O)CCn1c(=O)oc2ccccc21,19,-3,19%,·,0.3,3.9,-9,-0.3
CCN(CC)C(=O)CSc1nnc(COc2cccc(C)c2)n1C,0,·,-7%,·,0.0,-3.7,12,2.4
Cn1c(=O)c2c(ncn2CC(=O)Nc2ccccc2N2CCOCC2)n(C)c1=O,?,2,1%,·,1.7,4.3,2,-2.6
O=C(N/N=C/c1ccco1)c1cccc(N2Cc3ccccc3C2)c1,5,-5,?,-0.6,-0.4,1.5,-5,1.7
CC(=O)N(Cc1nc2sc(C)c(C)c2c(=O)[nH]1)C1CCCC1,2,1,-3%,-2.9,0.8,1.7,-4,2.8
C[C@H](CO)N1C[C@H](C)[C@@H](CN(C)Cc2ccc(-c3ccccc3)cc2)Oc2c(NC(=O)c3ccncc3)cccc2C1=O,·,-10,·,9.9,0.0,-2.0,·,·
CCOc1ccc(C(=O)NCC(=O)NCC2CCCCC2)cc1OCC,-5,-13,·,-19,1.4,0.3,-9,0.7
CC(=O)c1c(O)c2ccccc2n(C(C)C)c1=O,22,-6,14%,-0.7,0.4,4.5,-9,2.5
O=C(Cn1c(C(=O)OCCO)cc2ccccc21)c1ccccc1,-1,-6,6%,0.5,1.3,-8.6,-3,5.2
O=C(NCCNC(=O)c1ccc(-c2ccc(Cl)c(Cl)c2)o1)c1cnccn1,1,·,·,2.1,0.6,0.1,35,-1.3
COc1ccc([C@H]2CC(=O)C=C(c3cccc4c3Oc3ccccc3S4)C2)cc1,·,10,·,1.9,-1.0,-4.5,·,·
CCCCc1cc(=O)oc2cc(OS(C)(=O)=O)ccc12,-2,0,-2%,·,1.4,-1.8,-3,3.4
Cn1cc(Br)c(C(=O)n2cc(Br)cn2)n1,18,-5,·,-3.2,2.2,1.6,-5,-1.2
